# Yeast UUG start: alters start codon recognition fidelity in yeast. S. cerevisiae UUG-firefly luciferase reporter, luminescence/redox ratio. activity score, % at 18.7 µM. actives 0.13% (n = 350,000);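 active means replicate mean at a twofold rise or more, about +100% in these data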;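 further: firefly luciferase made from a UUG start codon reports start codon fidelity; reporter light over untreated wells divided by growth signal over untreated wells; some hits fall short of that in this replicate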
# The depositor's hits bear a star.
item	smiles	Yeast UUG start
1	CO[C@@H]1CN(C)C(=O)c2ccc(NC(C)=O)cc2OC[C@@H](C)N(CCC(F)(F)F)C[C@H]1C	-4
2	CC(C)CC#Cc1ccc([C@H]2[C@H](CO)N3CCCCN(S(=O)(=O)Cc4ccccc4)C[C@@H]23)cc1	-4
3	Cc1noc(C)c1NC(=O)Nc1ccc2c(c1)C(=O)N([C@@H](C)CO)C[C@H](C)[C@H](CN(C)Cc1ccncc1)O2	-9
4	CCN(C[C@H]1N[C@H](CO)[C@@H]1c1ccc(-c2cccc(F)c2)cc1)C(=O)COC	2
5	Cc1ccc(S(=O)(=O)Nc2ccc3c(c2)CC(=O)N([C@@H](C)CO)C[C@H](C)[C@H](CN(C)CC2CCCCC2)O3)cc1	-5
6	CC(C)NC(=O)N(C)C[C@@H]1Oc2c(NC(=O)c3cnccn3)cccc2C(=O)N([C@@H](C)CO)C[C@H]1C	2
7	COC(=O)C[C@@H]1CC[C@H]2[C@H](COc3ccc(NC(=O)c4cc(C)on4)cc3C(=O)N2C)O1	4
8	CNC[C@@H]1Oc2ccc(NS(=O)(=O)c3ccc(F)cc3)cc2CC(=O)N([C@@H](C)CO)C[C@@H]1C	10
9	C[C@@H]1CN([C@H](C)CO)C(=O)Cc2cc(NS(=O)(=O)c3ccc(F)cc3)ccc2O[C@H]1CN(C)C(=O)NC1CCCCC1	22
10	CO[C@@H]1CN(C)C(=O)c2cc(NS(C)(=O)=O)ccc2OC[C@@H](C)N(CC2CCCCC2)C[C@H]1C	3
11	C[C@H](CO)N1C[C@H](C)[C@H](CN(C)C(=O)Nc2ccc(N3CCN(C)CC3)cc2)OCc2cn(nn2)CCCC1=O	-10
12	COc1ccccc1C(=O)N1C[C@H]2[C@@H](c3ccccc31)[C@@H](CO)N2C(=O)C1CCOCC1	-8
13	CCC(=O)N1CC[C@@H]2[C@H]1c1cc(-c3ccc(C(=O)N(C)C)cc3)ccc1N[C@@H]2CO	0
14	C[C@@H]1CN([C@@H](C)CO)C(=O)c2cccc(NS(=O)(=O)c3ccc(Cl)cc3)c2O[C@@H]1CN(C)Cc1ccc(Oc2ccccc2)cc1	0
15	O=C(NCc1ccccc1Cl)[C@@H]1[C@@H](CO)[C@@H]2Cn3c(cccc3=O)[C@@H]2N1C(=O)C1CCCC1	-5
16	O=S(=O)(c1cccc(F)c1)N1CC[C@@H]2[C@H]1c1cc(Br)ccc1N[C@@H]2CO	-6
17	C[C@@H]1CN([C@H](C)CO)C(=O)c2cccc(NC(=O)Nc3ccc4c(c3)OCO4)c2O[C@H]1CN(C)Cc1ccc(Oc2ccccc2)cc1	-5
18	COCC(=O)Nc1ccc2c(c1)C(=O)N(C)C[C@H](OC)[C@H](C)CN(Cc1cccc(F)c1)[C@@H](C)CO2	7
19	CCCNC(=O)N1[C@H](CO)[C@H](c2ccccc2)[C@H]1CNC(=O)c1ccccc1	2
20	CN(C)CC(=O)N1CC[C@@H]2[C@@H](CO)N(C)c3ccc(Br)cc3[C@@H]21	-7
21	C[C@H]1CN([C@@H](C)CO)C(=O)c2cccc(NC(=O)C3CCCCC3)c2O[C@@H]1CN(C)Cc1ccc(Oc2ccccc2)cc1	5
22	Cc1ccc(S(=O)(=O)N(C)C[C@@H]2Oc3ccc(NC(=O)c4ccncc4)cc3C(=O)N([C@H](C)CO)C[C@H]2C)cc1	-6
23	O=C(C[C@@H]1CC[C@H]2[C@@H](COC[C@@H](O)CN2C(=O)c2ccncc2)O1)NCc1cc(F)cc(F)c1	-12
24	C/C=C/c1ccc([C@H]2[C@H]3CN(C(=O)Nc4ccc(F)cc4)CCCCN3[C@H]2CO)cc1	5
25	O=C(C1CCCCC1)N1CC[C@@H]2[C@H](CO)Nc3ccc(C#Cc4ccc(F)cc4)cc3[C@@H]21	-7
26	CO[C@H]1CN(C)C(=O)c2cc(NS(=O)(=O)c3cccc(F)c3)ccc2OC[C@H](C)N(Cc2cc(F)ccc2F)C[C@@H]1C	-12
27	C[C@H]1CN([C@@H](C)CO)C(=O)Cc2cc(NC(=O)Cc3cn(C)c4ccccc34)ccc2O[C@H]1CN(C)C(=O)NC1CCCCC1	2
28	COc1ccc(NC(=O)Nc2cccc3c2O[C@@H](CN(C)C(=O)Nc2ccc(F)cc2)[C@H](C)CN([C@@H](C)CO)C3=O)cc1	15
29	CC(C)NC(=O)N(C)C[C@@H]1Oc2ccc(NS(=O)(=O)c3ccc(F)cc3)cc2C(=O)N([C@@H](C)CO)C[C@H]1C	-9
30	C[C@H]1CN([C@@H](C)CO)C(=O)c2cc(NC(=O)NC3CCCCC3)ccc2O[C@@H]1CN(C)S(=O)(=O)c1cn(C)cn1	1

# Pulled by compound from above, six records:
item	smiles	Yeast UUG start
6	CC(C)NC(=O)N(C)C[C@@H]1Oc2c(NC(=O)c3cnccn3)cccc2C(=O)N([C@@H](C)CO)C[C@H]1C	2
22	Cc1ccc(S(=O)(=O)N(C)C[C@@H]2Oc3ccc(NC(=O)c4ccncc4)cc3C(=O)N([C@H](C)CO)C[C@H]2C)cc1	-6
4	CCN(C[C@H]1N[C@H](CO)[C@@H]1c1ccc(-c2cccc(F)c2)cc1)C(=O)COC	2
27	C[C@H]1CN([C@@H](C)CO)C(=O)Cc2cc(NC(=O)Cc3cn(C)c4ccccc34)ccc2O[C@H]1CN(C)C(=O)NC1CCCCC1	2
2	CC(C)CC#Cc1ccc([C@H]2[C@H](CO)N3CCCCN(S(=O)(=O)Cc4ccccc4)C[C@@H]23)cc1	-4
29	CC(C)NC(=O)N(C)C[C@@H]1Oc2ccc(NS(=O)(=O)c3ccc(F)cc3)cc2C(=O)N([C@@H](C)CO)C[C@H]1C	-9

# The listing picks up, starting 4 compounds before the break.
item	smiles	Yeast UUG start
27	C[C@H]1CN([C@@H](C)CO)C(=O)Cc2cc(NC(=O)Cc3cn(C)c4ccccc34)ccc2O[C@H]1CN(C)C(=O)NC1CCCCC1	2
28	COc1ccc(NC(=O)Nc2cccc3c2O[C@@H](CN(C)C(=O)Nc2ccc(F)cc2)[C@H](C)CN([C@@H](C)CO)C3=O)cc1	15
29	CC(C)NC(=O)N(C)C[C@@H]1Oc2ccc(NS(=O)(=O)c3ccc(F)cc3)cc2C(=O)N([C@@H](C)CO)C[C@H]1C	-9
30	C[C@H]1CN([C@@H](C)CO)C(=O)c2cc(NC(=O)NC3CCCCC3)ccc2O[C@@H]1CN(C)S(=O)(=O)c1cn(C)cn1	1
31	COCC#Cc1ccc([C@@H]2[C@@H](CO)N3CCCCN(S(=O)(=O)c4ccc(OC)cc4)C[C@H]23)cc1	-5
32	C[C@@H]1CN([C@H](C)CO)C(=O)Cc2cc(NC(=O)Cc3cn(C)c4ccccc34)ccc2O[C@H]1CN(C)Cc1ccncc1	-14
33	C[C@@H]1CN([C@H](C)CO)C(=O)c2cccc(NC(=O)C3CCCCC3)c2O[C@@H]1CN(C)C(=O)Nc1cccc2ccccc12	1
34	CCOC(=O)N(C)C[C@H]1OCc2ccccc2-c2ccccc2C(=O)N([C@@H](C)CO)C[C@H]1C	-9
35	CC(=O)N(C)C[C@@H]1[C@@H](c2ccc(-c3ccccc3F)cc2)[C@H](CO)N1C(C)=O	8
36	COc1ccc(CN(C)C[C@H]2Oc3c(NC(=O)c4cc(C)nn4C)cccc3C(=O)N([C@@H](C)CO)C[C@@H]2C)cc1	1
37	CC(C)C(=O)Nc1ccc2c(c1)C(=O)N(C)[C@H]1CC[C@H](CC(=O)NC3CCCC3)O[C@H]1CO2	3
38	CCCNC(=O)Nc1ccc2c(c1)C(=O)N(C)C[C@@H](OC)[C@@H](C)CN(C(=O)C1CCOCC1)[C@H](C)CO2	-8
39	O=C(c1ccccc1F)N1CC[C@@H]2[C@H]1c1cc(-c3ccc(F)cc3)ccc1N[C@@H]2CO	-22
40	O=C(Nc1ccc(F)cc1)N1C[C@@H]2[C@H](c3ccccc31)[C@@H](CO)N2C(=O)c1ccc(F)cc1	1
41	COC(=O)C[C@@H]1CC[C@@H]2[C@H](COC[C@H](O)CN2S(=O)(=O)c2ccccc2C)O1	-5
42	CCC(=O)N1CCCCN2[C@H](CO)[C@H](c3ccc(C#CCOC)cc3)[C@H]2C1	5
43	C[C@H]1CN([C@@H](C)CO)C(=O)CCCn2nncc2CO[C@@H]1CN(C)C	0
44	COCC(=O)N(C[C@H]1[C@H](c2ccccc2)[C@H](CO)N1C(=O)NC(C)C)C(C)C	-5
45	CC(=O)N1CCCCN2[C@H](CO)[C@H](c3ccc(-c4ccccc4)cc3)[C@H]2C1	0
46	COc1ccc(S(=O)(=O)N2CC[C@@H]3[C@H](CO)Nc4ccc(-c5cccc(C#N)c5)cc4[C@@H]32)cc1	-15
47	C[C@H]1CN([C@@H](C)CO)C(=O)CCCn2cc(nn2)CO[C@@H]1CN(C)C(=O)CCCN(C)C	11
48	C[C@H](CO)N1C[C@H](C)[C@@H](CN(C)S(=O)(=O)c2ccccc2)OCc2ccccc2-c2ccccc2C1=O	8
49	C[C@@H]1CN([C@@H](C)CO)C(=O)c2cccc(NS(=O)(=O)c3cn(C)cn3)c2O[C@@H]1CN(C)Cc1ccc(-c2ccccc2)cc1	0
50	CC(C)NC(=O)N1C[C@@H]2[C@H](c3ccccc31)[C@H](CO)N2Cc1ccccc1	8
51	CC(=O)N1CCCCN2[C@H](C1)[C@H](c1ccc(-c3cccc(C(=O)N(C)C)c3)cc1)[C@@H]2CO	20
52	COc1ccccc1CNC(=O)C[C@H]1CC[C@H]2[C@H](COc3ccc(NC(=O)Nc4ccc(F)c(F)c4)cc3C(=O)N2C)O1	-13
53	CS(=O)(=O)N1CCCCN2[C@@H](CO)[C@H](c3ccc(-c4cccc(C#N)c4)cc3)[C@@H]2C1	-15
54	CCCC(=O)Nc1ccc2c(c1)C(=O)N(C)C[C@@H](OC)[C@@H](C)CN(S(=O)(=O)c1cn(C)cn1)[C@H](C)CO2	3
55	CO[C@H]1CN(C)C(=O)c2cc(NS(C)(=O)=O)ccc2OC[C@@H](C)N(C(=O)C2CCCCC2)C[C@@H]1C	0
56	C[C@@H]1CN([C@@H](C)CO)C(=O)Cc2cc(N(C)C)ccc2O[C@@H]1CN(C)C(=O)Nc1ccc(F)cc1	2
57	O=C(c1ccccn1)N1CC[C@H]2[C@H](CO)Nc3ccc(Br)cc3[C@H]21	0
58	C[C@H](CO)N1C[C@H](C)[C@H](CN(C)Cc2ccc(C(F)(F)F)cc2)Oc2c(NC(=O)c3nc4ccccc4s3)cccc2C1=O	0
59	COc1ccccc1-c1ccc([C@H]2[C@H](CO)N3CCCCN(S(=O)(=O)c4cn(C)cn4)C[C@@H]23)cc1	6
60	CCN(C[C@H]1[C@H](c2ccccc2)[C@@H](CO)N1C(=O)COC)S(C)(=O)=O	-2
61	CCC(=O)N1CCCCN2[C@H](C1)[C@H](c1ccc(C#CCOC)cc1)[C@@H]2CO	-3
62	CCCC(=O)N1C[C@H]2[C@@H](c3ccccc31)[C@@H](CO)N2C(=O)Nc1ccc(F)cc1	2
63	O=C(C[C@H]1CC[C@@H]2[C@H](COC[C@H](O)CN2Cc2cc(F)ccc2F)O1)NCc1ccccc1	25
64	C[C@H](NC(=O)C[C@H]1C[C@@H]2c3cc(NC(=O)C4CCC4)ccc3O[C@@H]2[C@H](CO)O1)c1ccccc1	9
65	COc1ccccc1C#Cc1ccc2c(c1)[C@H]1[C@H](CCN1C(=O)CN1CCOCC1)[C@H](CO)N2	0
66	COc1ccc(CN(C)C[C@H]2Oc3ccc(NS(=O)(=O)c4ccc(C)cc4)cc3C(=O)N([C@@H](C)CO)C[C@@H]2C)cc1	2
67	CN(C)CC(=O)N1CCCCN2[C@@H](CO)[C@@H](c3ccc(-c4ccccc4)cc3)[C@@H]2C1	4
68	CO[C@H]1CN(C)C(=O)c2cc(NC(=O)C3CC3)ccc2OC[C@H](C)N(CC2CCCC2)C[C@@H]1C	-16
69	C[C@@H]1CN([C@@H](C)CO)C(=O)c2cc(NS(=O)(=O)c3cn(C)cn3)ccc2O[C@H]1CN(C)Cc1ccc(Oc2ccccc2)cc1	6
70	COCC(=O)Nc1ccc2c(c1)C(=O)N(C)C[C@@H](OC)[C@H](C)CN(Cc1cc(-c3ccccc3)on1)[C@H](C)CO2	23
71	COc1ccc(C#Cc2ccc3c(c2)[C@H]2[C@H](CCN2C(=O)c2cnccn2)[C@H](CO)N3)cc1	-24
72	CNC[C@@H]1Oc2ccc(NS(=O)(=O)c3ccc(C)cc3)cc2C(=O)N([C@@H](C)CO)C[C@@H]1C	4
73	C[C@@H]1CN([C@@H](C)CO)C(=O)c2cc(NC(=O)Cn3cnnn3)ccc2O[C@@H]1CN(C)Cc1ccc(C(=O)Nc2ccccc2N)cc1	-10
74	CC(=O)NC[C@H]1[C@H](c2ccc(-c3ccccc3F)cc2)[C@@H](CO)N1C(C)=O	-17
75	C[C@@H]1CN([C@@H](C)CO)C(=O)Cc2cc(NC(=O)CCCN(C)C)ccc2O[C@H]1CN(C)C	4
76	CO[C@H]1CN(C)C(=O)c2cc(NS(=O)(=O)c3cccc(F)c3)ccc2OC[C@@H](C)N(Cc2cc(F)ccc2F)C[C@@H]1C	3
77	COc1ccc(C#Cc2ccc([C@@H]3[C@@H](CO)N4CCCCN(C(=O)c5ccncc5)C[C@@H]34)cc2)cc1	-3
78	CCC(=O)Nc1ccc2c(c1)C(=O)N(C)C[C@@H](OC)[C@H](C)CN(C(=O)NC(C)C)[C@@H](C)CO2	-18
79	C[C@@H](O)C#Cc1ccc([C@@H]2[C@H]3CN(S(=O)(=O)Cc4ccccc4)CCCCN3[C@H]2CO)cc1	-8
80	C/C=C/c1ccc([C@H]2[C@@H](CO)N(C(=O)C3CC3)[C@@H]2CN(CC)C(C)=O)cc1	21
81	O=S(=O)(c1ccccc1)N1CCCCN2[C@@H](CO)[C@@H](c3ccc(C#Cc4ccccc4)cc3)[C@@H]2C1	18
82	C[C@@H]1CN([C@H](C)CO)C(=O)c2cccc(NC(=O)C3CCOCC3)c2O[C@@H]1CN(C)S(=O)(=O)c1ccc(Cl)cc1	7
83	CO[C@@H]1CN(C)C(=O)c2ccc(NC(=O)Nc3cccc(F)c3)cc2OC[C@H](C)N(C(=O)Nc2c(C)noc2C)C[C@H]1C	-3
84	C/C=C/c1ccc([C@@H]2[C@@H](CO)N(C(=O)C3CC3)[C@H]2CN(C)C(=O)CN(C)C)cc1	8
85	CC(=O)NC[C@H]1[C@H](c2ccc(-c3ccccc3F)cc2)[C@H](CO)N1C(=O)C1CC1	-8

# Only part of the results is shown; the hit share may differ from the screen's.
